NS1 function inh: qHTS Assay for Inhibitors of Influenza NS1 Protein Function | Potency, µM (top dose mostly 46.1 µM), inactives show at the top dose activity, positive = more growth | 0.4% of 270,000 active | AID 2326, 2010 | S. cerevisiae slowed by influenza A NS1, growth recovery by OD600; also: actives are rising curves; nearly all actives have a fitted effect of over 50% in size
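Read-out: OD600 growth recovery of NS1-expressing budding yeast. Cells grown overnight at 30C in -URA glucose medium, washed, resuspended and diluted 1:100 in 2% galactose assay medium, pH 6.0. Same strain lacking NS1 served as positive control.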
Cruzain noTriton: qHTS Assay for Promiscuous and Specific Inhibitors of Cruzain (without detergent) | purified cruzain, Z-FR-AMC fluorescence, no detergent | Cruzipain (Trypanosoma cruzi), P25779 | 2.3% of 200,000 active | Potency, µM, for inactives: max response, negative = inhibition, hits mostly inhibitors; active = well fitted curve in the direction sought with a large enough effect; inconclusive = small, poorly fitted or top-dose-only effect, or another doubt; inactive = no such curve, though single readings can be large; an effect the other way counts as inactive or inconclusive;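 also: plate controls were enzyme without inhibitor for no effect and buffer without enzyme for full effect; nearly all actives have a fitted effect of over 40% in size; top concentration of the series not given in the record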
Target sequence (P25779 123-467 limits assumed): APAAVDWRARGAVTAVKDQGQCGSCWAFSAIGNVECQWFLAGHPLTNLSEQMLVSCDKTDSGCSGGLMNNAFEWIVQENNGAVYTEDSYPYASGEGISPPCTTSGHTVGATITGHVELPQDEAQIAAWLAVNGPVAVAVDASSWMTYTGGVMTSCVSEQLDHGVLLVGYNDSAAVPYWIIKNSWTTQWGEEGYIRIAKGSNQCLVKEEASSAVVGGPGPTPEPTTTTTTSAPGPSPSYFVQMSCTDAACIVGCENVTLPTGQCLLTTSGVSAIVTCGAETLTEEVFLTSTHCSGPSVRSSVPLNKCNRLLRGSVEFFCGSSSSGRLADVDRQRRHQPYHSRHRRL
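Detergent-free condition (0.00005% Triton X-100) in acetate buffer pH 5.5 with DTT. 1.5 nM enzyme and compound were pre-mixed 15 min, then 2 uM Z-FR-AMC substrate added; reaction progress from fluorescence change between first and third reads (60 s).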
SARS PLpro yeast: qHTS of Yeast-based Assay for SARS-CoV PLP. S. cerevisiae expressing SARS-CoV PLpro, growth rescue; control for the full effect not named in the record. Potency, µM (series often up to 32.9 µM), for the others: at the highest dose activity, positive = growth rescue. 0.19% of 330,000 active. AID 485353, 2010; also: 0% is about no effect; nearly all actives have a fitted effect of over 55% in size; growth read by luminescence after 48 h
RE007 growth inh: qHTS Assay for Inhibitors of the HIV-1 protein Vpr. Potency, µM (top dose mostly 92.2 µM), for the others: top-dose activity change, negative = less growth. 0.21% of 360,000 active. S. pombe RE007 Vpr strain, BacTiter-Glo ATP luminescence, 24 h; control for the full effect not named in the record; active = well fitted falling curve with a large enough effect; inconclusive = small, poorly fitted or top-dose-only effect; inactive = no such curve, though single readings can be large or run the other way;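 also: % is scaled to controls: 0 for no effect and ±100 for the full control effect; nearly all actives have a fitted effect of over 50% in size; the assay follows cell death caused by Vpr and the record does not say whether a fall means rescue or toxicity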
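Fission yeast strain RE007, carrying one chromosomally integrated HIV-1 vpr copy, was seeded at OD 0.01 in PMG+AL medium with 23 nL pinned compound. After 24 h at 30 °C and 99% humidity, viability was read by BacTiter-Glo luminescence.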
StopGo reporter: High Throughput Screening for Foot and Mouth Disease Virus Antivirals; human cells with a luciferase reporter of 2A StopGo recoding; control for the full effect not named in the record; Potency, µM (doses to about 57.9 µM), for the others: top-dose signal change, negative = less light; 1.2% of 410,000 active; AID 1159524, 2015; active = well fitted falling curve with a large enough effect; inconclusive = small, poorly fitted or top-dose-only effect; inactive = no such curve, though single readings can be large or run the other way; tested in HEK293T cells; also: % is scaled to controls: 0 for no effect and ±100 for the full control effect; nearly all actives have a fitted effect of over 45% in size; luciferase light after 4 h
Lassa entry inh: qHTS for Inhibitors of binding or entry into cells for Lassa Virus. Potency, µM (series often up to 37.9 µM), without a hit: at the highest dose activity change, negative = inhibition, usual class: inhibitors. Lassa virus pseudotype entry inhibition, cell reporter; control for the full effect not named in the record. 1.2% of 300,000 active; active means well fitted inhibition curve with a large enough effect; inconclusive means small, poorly fitted or top-dose-only effect, or effect the other way; inactive means flat fitted curve, though single readings scatter; tested in HEK293 cells; also: % is scaled to controls: 0 for no effect and ±100 for the full control effect; nearly all actives have a fitted effect of over 50% in size; luciferase read-out
Cruzain Triton: qHTS Assay for Promiscuous and Specific Inhibitors of Cruzain (with detergent). Potency, µM, for inactives: max response, negative = inhibition, most hits filed as inhibitors. 0.43% of 200,000 active. AID 1478, 2009. purified cruzain, Z-FR-AMC fluorescence, 0.01% Triton; active = well fitted curve in the direction sought with a large enough effect; inconclusive = small, poorly fitted or top-dose-only effect, or another doubt; inactive = no such curve, though single readings can be large; an effect the other way counts as inactive or inconclusive;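 also: plate controls were neutral wells for no effect and buffer without enzyme for full effect; nearly all actives have a fitted effect of over 40% in size; top concentration of the series not given in the record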
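Detergent-containing arm of a paired screen for aggregation-based inhibition: 0.01% Triton X-100 present. Cruzain at 1.5 nM cleaved 2 uM Z-FR-AMC at pH 5.5 with 5 mM DTT; AMC fluorescence gain over 60 s measured activity.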
MARV entry inh: qHTS for inhibitors of binding or entry into cells for Marburg Virus; Potency, µM (series often up to 37.8 µM), for the others: at the highest dose activity change, negative = inhibition, actives largely listed as inhibitors; AID 540276, 2011; 1.8% of 300,000 active; Marburg virus pseudotyped entry inhibition, cell reporter; control for the full effect not named in the record; about a third of the inactives were read at about 46 µM; active = well fitted inhibition curve with a large enough effect; inconclusive = small, poorly fitted or top-dose-only effect, or effect the other way; inactive = flat fitted curve, though single readings scatter; tested in HEK293 cells; about a fifth of its hits are not listed in these tables; also: % is scaled to controls: 0 for no effect and ±100 for the full control effect; luciferase read-out
* hit, by the source's call; ? = inconclusive; / = not tested or not shown; & = joins results of further samples; [ ] = dose if it differs, or a comment. Unless noted, calls follow the shape of the dose curve; as a rule, active means well fitted rising curve with a large enough effect; inconclusive means small, poorly fitted or top-dose-only effect; inactive means no such curve, though single readings can be large or run the other way. Potency is read from the fitted curve at half-maximal effect. The order is random (roughly 4.8% active in at least one column).

smiles	Cruzain Triton	Lassa entry inh	RE007 growth inh	MARV entry inh	SARS PLpro yeast	Cruzain noTriton	NS1 function inh	StopGo reporter
Cc1ccc(OCCOC(=O)Cn2nc(C)c([N+](=O)[O-])c2C)cc1	/	/	-7%	/	-2%	/	2%	-2%
COc1cc(C(C)=NNC(=O)c2ccncc2)ccc1O	/	4%	-2%	3%	/	/	/	4%
CCSc1nnc2c(Cl)cc(Cl)cn12	2.5%	18%	5%	-10%	-3%	4%	0%	0%
COc1cccc(Cn2c(OCC3CCCO3)nc3c2c(=O)n(C)c(=O)n3C)c1 (stereo not drawn)	-1.4%	-12%	1%	16%	8%	4%	-22%	-5%
CCOC(=O)c1cccc(NC(=O)CN2C(=O)C3C4C=CC(C4)C3C2=O)c1 (stereo not drawn)	1.7%	17%	1%	15%	21%	-12%	-2%	4%
COC(=O)CC1=C(C(=O)OC)C(c2ccc3c(c2)OCO3)C(C#N)=C(N)O1 (stereo not drawn)	/	-24%	-14%	11%	-6%	/	-1%	-18%
COc1ccc(CCN=C2SCC(=O)N2C)cc1OC	9.9%	9%	12%	11%	0%	0%	-4%	/
CSc1nc(O)c(C(c2ccc(C)cc2)c2c(O)nc(SC)[nH]c2=O)c(=O)[nH]1	/	/	-8%	/	10%	/	33%	-11%
CCOc1ccc(C2=Nn3c(nnc3-c3ccc(OC)cc3)SC2)cc1	-8.4%	?	12%	5.2µM*	-4%	4%	-33%	?
CC(=O)Nc1ccc(S(=O)(=O)N(C#N)c2nc(N(C)C)nc(N(C)C)n2)cc1	/	4%	6%	?	0%	/	13%	-5%
CN(C)S(=O)(=O)c1cccc(-c2nn(-c3ccccc3)cc2/C=C(/C#N)C(=O)NCc2ccco2)c1	-1.0%	?	47%	4%	15%	-22%	24%	?
CCn1cc2c(n1)-c1c(oc(C(=O)Nc3ccc(Br)cc3F)c1C)CC2	-2.8%	-24%[46.1 µM]	/	/	/	10%	/	22%
CSc1ncc(CN2CCC(C(=O)Nc3cccc(-c4cscn4)c3)CC2)cn1	/	?	-5%	?	0%	/	-8%	-29%
COc1ccc(C(C)=O)cc1COC(=O)[C@H](Cc1ccccc1)NC(=O)c1ccco1	/	15%	-4%	-11%	-25%	/	/	-6%
Cc1ccc(/C=C2/SC(=S)N(CCC(=O)N3CCOCC3)C2=O)cc1	/	-2%[46.1 µM]	5%	4%[46.1 µM]	1%	/	-17%	36%[activator]
NC(=O)CC(NC(=O)Cc1ccc(Br)cc1)c1ccc(N2CCC(Br)CC2)c([N+](=O)[O-])c1 (stereo not drawn)	/	/	4%	/	7%	/	0%	-23%
Brc1ccc2ncnc(NCc3ccco3)c2c1	-1.7%	?	-28%	?	-8%	-14%	-94%	14µM*
Cc1ccc(S(=O)(=O)N2CCN(Cc3nc4ccccc4n3C)CC2)cc1	-1.6%	4%	-2%	-14%	9%	0%	-10%	/
Cn1c(=O)c2c(nc(Oc3ccc(F)cc3)n2Cc2ccc(F)cc2)n(C)c1=O	2.9%	23%[46.1 µM]	/	/	/	14%	/	0%
COC(=O)c1ccsc1NC(=O)c1cccc(OC)c1	/	-8%	-17%	2%[46.1 µM]	-1%	/	-7%	7%
O=C(CSc1ccc(-c2ccccc2)nn1)c1cccs1	/	18%	-3%	?	-4%	/	-1%	49%[activator]
CCOC(=O)N1CCN(c2ccc(O)cc2)CC1	0.2%	-15%	-9%	-8%	11%	-1%	12%	-4%
COC(=O)c1ccc(NC(=O)COc2ccc(S(=O)(=O)NC(C)C)cc2)cc1	-0.6%	2%	-11%	-17%	21%	-6%	-7%	/
Cc1ccc2[nH]c(=O)c(CN(CCc3ccccc3)Cc3nnnn3CC3CCCO3)cc2c1 (stereo not drawn)	-7.1%	?	14%	?	14%	24%	-12%	/
NS(=O)(=O)c1ccc(NC(=O)CN2CCN(Cc3ccccc3)CC2)cc1	1.5%	-1%	8%	11%	1%	0%	-6%	-5%
O=C(Nc1ccc2nc(-c3cccnc3)[nH]c2c1)C1CCCCC1	-8.5%	-2%	1%	-13%	20%	8%	-17%	-5%
CC1=CCC(C(=O)O)C(C(=O)Nc2ccc(-c3nc4ccc(C)cc4s3)cc2)C1 (stereo not drawn)	/	10%[46.1 µM]	-26%	?	1%	/	-1%	?
CC(=O)c1cc(-c2ccccc2)n(CC(=O)NCc2ccccc2C)c1C	0.6%	/	/	-11%[46.1 µM]	/	3%	/	-8%
CC1CCN(C(=O)c2cc3nc(C4CC4)cc(C(F)(F)F)n3n2)CC1	-3.2%	-2%	25%	-4%	0%	18%	-3%	-4%
CCNc1ccccc(-c2ccc3ccccc3n2)c1=O	-9.6%	10%	-22%	21%	11µM*	-6%	-2%	31%[activator]
Cc1cc(CNCCN(C)C)c(C)n1-c1cc(S(=O)(=O)N2CCOCC2)ccc1N1CCCC1	/	?	-19%	?	/	/	/	-11%
O=S(=O)(c1ccc(S(=O)(=O)N2CCN(C3CCCCC3)CC2)cc1)N1CCCCCC1	5.7%	18%	7%	-1%&0%	3%	0%	-2%	-6%
Cc1ccccc1NC(=O)CSc1nc2ccc(NC(=O)COc3ccccc3F)cc2s1	-2.0%	-15%[46.1 µM]	/	-15%[46.1 µM]	/	?	/	0%
COc1ccc(NC(=O)COc2ccc(/C=C/c3cccc[n+]3C)cc2OC)cc1	/	-9%[46.1 µM]	-13%	?	-4%	/	-5%	-6%
O=C(NC(=S)N1CCCc2ccccc21)c1ccccc1	1.0%	2%	-12%	16%	-3%	-27%	7%	31%[activator]
CN1C(=O)C(CC(=O)Nc2ccccc2F)N(NC(=O)c2ccc(Br)cc2)C1=S (stereo not drawn)	/	-15%[46.1 µM]	1%	13µM*	4%	/	28%	12%
COc1ccc(C[C@H]2CN3C(=NC[C@@H]3C(C)C)N2CCNC(=O)c2ccc(C)c(Br)c2)cc1	/	/	-7%	/	-1%	/	0%	-20%
Cc1cccc(-n2nc3c(c2NC(=O)CCC2CCCCC2)CS(=O)C3)c1C (stereo not drawn)	-3.0%	/	17%	/	0%	19%	-8%	-9%
O=c1[nH]c2cccnc2n1-c1ccc([N+](=O)[O-])cc1	/	/	5%	/	-1%	/	-1%	-3%
COC(=O)C1=C(C)NC(=O)NC1/C=C/c1ccccc1 (stereo not drawn)	-0.8%	24%	-12%	15%	-1%	-7%	-7%	6%
COc1ccccc1C(=O)NCCC(=O)NCCCSc1ccccc1	/	-12%	3%	9%	2%	/	/	-21%
COc1ccc(CNC(=O)C2CCN(Cc3nc(-c4ccc(Cl)cc4)oc3C)CC2)cc1	1.6%	1%[46.1 µM]	/	9%[46.1 µM]	/	5%	/	0%
Clc1ccc(CN2C3=NCCCN3c3ccccc32)c(Cl)c1	/	?	0%	?	-1%	/	-3%	-25%
CC(C)Oc1ccc(CCC(=O)N/N=C/c2ccncc2)cc1	/	1µM*	1%	1%[46.1 µM]	2%	/	-7%	3%
CCN1CCN(c2ccc(S(=O)(=O)N3CCOCC3)cc2NC(=O)c2ccc(C)c(C)c2)CC1	/	0%	-9%	26%	-4%	/	/	-3%
CN(C)c1ccc(NC(=O)CSC2=Nc3ccccc3C3=NC(CC(=O)NCc4ccc5c(c4)OCO5)C(=O)N23)cc1 (stereo not drawn)	-8.8%	11%[46.1 µM]	/	/	/	-7%	/	4%
COC(=O)c1c(NC(=O)C(=O)NCCCN2CCOCC2)sc2c1CCCC2	/	/	-9%	/	-9%	/	-5%	-32%
COC(=O)c1ccc(OC(=O)CS(=O)c2ccccc2[N+](=O)[O-])cc1 (stereo not drawn)	/	8%	-28%	2%[46.1 µM]	-5%	/	-31%	5%
CCC(CC)C(=O)Nc1ccccc1C(=O)OCc1cc(=O)n2nc(C3CCCCC3)sc2n1	0.8%	15%[46.1 µM]	/	/	/	-6%	/	-17%
CSCCC(NS(=O)(=O)c1ccc(C)cc1)C(=O)N(C)CC(=O)Nc1ccccc1Br (stereo not drawn)	/	-8%	7%	?	/	/	/	13%
N#C/C(=C1/CCCN1)c1ccccn1	1.2%	1%	14%	4%	-2%	-7%	5%	-5%
CC(C)C(=O)N(c1ccc2oc(=O)sc2c1)S(=O)(=O)c1ccccc1	4.9%	0%	2%	-8%	-12%	-16%	23%	-17%
CCC(C)c1ccc(NC(=O)NCCN2CCCCC2)cc1 (stereo not drawn)	/	-5%[46.1 µM]	9%	?	-1%	/	12%	-17%
COc1cc([N+](=O)[O-])ccc1NC(=O)CN1CCN(C(=O)c2ccco2)CC1	/	-2%	8%	25%[46.1 µM]	-1%	/	0%	-14%
O=C(NCCc1c[nH]c2ccccc12)/C(=C/c1ccco1)NC(=O)c1ccco1	/	10%	-21%	?	0%	/	1%	-21%
COCCNC(=O)CCn1c(=O)c2cc(OC)c(OC)cc2n(CC(=O)Nc2ccccc2C)c1=O	-1.6%	17%[46.1 µM]	/	3%[46.1 µM]	/	9%	/	-3%
Cc1cc(C)cc(C(=O)NCCC(=O)NCc2cc(=O)n(C)c(=O)n2C)c1	/	/	8%	/	-6%	/	9%	4%
O=C1C=C(O)CC(c2cccs2)C1 (stereo not drawn)	-2.1%	-6%	-9%	21%	28%	-21%	22%	20%
CCn1cc(S(=O)(=O)NC2CCCCC2)cn1	/	?	-1%	-24%[46.1 µM]	-4%	/	8%	10%
O=C(NNC(=O)C1CC(=O)N(Cc2ccccc2)C1)c1ccc(F)cc1 (stereo not drawn)	/	-14%	-11%	?	18%	/	/	-20%
